H5N1 CPE: antiviral screen in MDCK cells, H5N1 avian flu; cytopathic effect, luminescence, 72 h; hits give high values; no value below 0 was filed and about half of the inactive calls have no number; reference of the scale not given here; inhibition, % at 50 µM; actives 0.07% (n = 96,000); in the data active = inhibition above about 25%
* = called active by the depositor; i = inactive. An excerpt. The share of hits here may be higher or lower than overall.

item | SMILES | H5N1 CPE
1 | CCOC(=O)c1c(NC(=O)c2nn(CC)cc2Br)sc(C)c1C | 0.7
2 | COCCNC(=O)C(c1cccs1)N(CCc1ccccc1)C(=O)Cn1nnc2ccccc21 (stereo unspecified) | 0.8
3 | CCOc1ccccc1NC(=O)c1ccc(Cl)c(NC(=O)CC(c2ccccc2)c2ccccc2)c1 | 2.2
4 | COc1ccc(-c2csc(Nc3cccnc3)n2)cc1OC | 0.7
5 | COc1ccc(CN2CCOCC2)cc1Br | 0.7
6 | O=C(NNC(=O)C1CCCO1)c1ccc(Cl)cc1 (stereo unspecified) | 0.0
7 | COc1ccc(-n2c(SCc3ccc(C#N)cc3)nnc2-c2ccccn2)cc1 | i
8 | O=C(NCc1ccccn1)C1COc2ccccc2O1 (stereo unspecified) | i
9 | CCOc1nc(Nc2ccc(OC)c(Cl)c2)nc(OCC)n1 | 0.7
10 | CC(=O)c1c(C)oc(C)c1CSCc1ccc(C(=O)O)o1 | 0.8
11 | CCCCn1nc(NC(=O)c2cccs2)c2cc3cc(OC)ccc3nc21 | i
12 | Cc1ccccc1OCC(O)Cn1c(NCc2ccco2)nc2c1c(=O)[nH]c(=O)n2C (stereo unspecified) | 1.1
13 | O=[N+]([O-])c1c(C(Cl)Cl)nn(-c2ccccc2)c1N1CCCC1 | 0.8
14 | CCN(CC)CC(=O)c1c[nH]c2ccc(C)cc12 | 0.6
15 | CC1Cc2ccccc2N1Cc1cc(=O)n2ccsc2n1 (stereo unspecified) | i
16 | CC1CCN(S(=O)(=O)c2ccc(N/N=C(/C#N)C(N)=O)cc2)CC1 | 0.8
17 | CC(=O)c1cccc(NC(=S)NC(=O)CC(C)C)c1 | 1.6
18 | O=C(NCCCN1CCCC1=O)c1csc2ccccc12 | 0.4
19 | COc1cccc(NC(=O)CSc2nnc(CN3CCOCC3)n2C)c1 | 0.1
20 | COc1ccc(NC(=O)c2nc[nH]c2C(=O)Nc2ccccc2C)cc1 | 0.6
21 | CN(C)CC1(c2ccccc2)CCCC1 | 0.8
22 | CCCNc1nc(NCC)nc(OC)n1 | i
23 | CCC(CC)NC(=O)COC(=O)c1ccc(OCC(=O)Nc2ccccc2OC)c(OC)c1 | i
24 | O=C(NC(=O)c1ccccc1)OCC1CCCN2CCCCC12 (stereo unspecified) | 1.9
25 | CCCCN1C(=O)NC(=O)C2(Cc3c(nc4c(C)cccn4c3=O)N3CCc4ccccc4C32)C1=O (stereo unspecified) | 6.0
26 | CCOC(=O)C1Cc2ccccc2CN1 (stereo unspecified) | 1.6
27 | C1CCN(c2nc(N3CCCCC3)nc(N3CCNCC3)n2)CC1 | i
28 | CS(=O)(=O)N1CCCC(C(=O)NCCc2ccc(Cl)cc2)C1 (stereo unspecified) | i
29 | CCC(C)N1CCN(C(=O)Cc2ccccc2)CC1 (stereo unspecified) | i
30 | COc1cc(NC(=S)NC(C)=O)ccc1NC(=O)C(C)C | 1.3
31 | COc1ccc(-c2cnc(SCC(=O)Nc3cc(C)on3)n2Cc2ccco2)cc1 | i
32 | COCCn1c(COc2ccc(OC)cc2)nc2ccccc21 | 2.3
33 | Cc1ccc(S(=O)(=O)Nc2nc3ccccc3nc2N2CCN(c3ccccc3F)CC2)cc1 | i
34 | CN(CC(=O)Nc1ccc2c(c1)OCCO2)S(=O)(=O)c1cccc2cccnc12 | 7.8
35 | COC(=O)CSc1n[nH]c(-c2ccncc2)n1 | 0.7
36 | CCOC(=O)CN1C(=O)C2(C(C#N)=C(N)Oc3ccccc32)C(C(=O)OC)=C1C (stereo unspecified) | i
37 | CC1(C)CC2CC(C)(CN2C(=O)c2cc(-c3ccccc3O)on2)C1 (stereo unspecified) | 0.0
38 | COc1ccc(N2C(=O)c3ccccc3NC2c2ccc(OC)c(CSc3ccccn3)c2)cc1 (stereo unspecified) | 0.6
39 | COc1ccc(-c2nnc(SCC(=O)NC(=O)NCc3ccco3)o2)cc1 | 0.1
40 | O=C(CSc1ncccn1)Nc1ccc(N2CCOCC2)cc1 | 0.2

Two entries from above, as labelled records.
25: CCCCN1C(=O)NC(=O)C2(Cc3c(nc4c(C)cccn4c3=O)N3CCc4ccccc4C32)C1=O (stereo unspecified)
  H5N1 CPE: 6.0

29: CCC(C)N1CCN(C(=O)Cc2ccccc2)CC1 (stereo unspecified)
  H5N1 CPE: i

Part of the list above, with each value named:
#21 CN(C)CC1(c2ccccc2)CCCC1
  H5N1 CPE = 0.8

#29 CCC(C)N1CCN(C(=O)Cc2ccccc2)CC1 (stereo unspecified)
  H5N1 CPE = i

#32 COCCn1c(COc2ccc(OC)cc2)nc2ccccc21
  H5N1 CPE = 2.3

#36 CCOC(=O)CN1C(=O)C2(C(C#N)=C(N)Oc3ccccc32)C(C(=O)OC)=C1C (stereo unspecified)
  H5N1 CPE = i

Next compounds follow.
item | SMILES | H5N1 CPE
41 | COc1ccc(C2NC3=C(CCC3)C3(C#N)C4(N=C(N)C23C#N)OCCO4)cc1 (stereo unspecified) | i
42 | Cc1cc(=O)oc2cc(NC(=O)C3CC(=O)N(Cc4ccccc4)C3)ccc12 (stereo unspecified) | 0.7
43 | CC(=O)Nc1ccc(OC(=O)c2cc([N+](=O)[O-])ccc2Cl)cc1 | 2.5
44 | COc1cc(OC)cc(C(=O)Nc2ccc(S(=O)(=O)Nc3cc(C)nc(C)n3)cc2)c1 | 0.3
45 | CCN(CC)C(=O)Oc1ccccc1NC(C)=O | i
46 | CC(=O)c1cnc(Nc2nc(C)c3ccc(C)cc3n2)nc1C | i
47 | CC(=O)CCc1c(C)[nH]c2ccc(NC(C)=O)cc2c1=O | 1.0
48 | CC(C)(C)c1cc(CN2CCOCC2)c(C(=O)O)o1 | 0.1
49 | Cc1ccc(S(=O)(=O)Cn2cnnn2)cc1 | 0.2
50 | CCc1ccc(-c2cc(C(=O)Nc3c(C)n(C)n(-c4ccccc4)c3=O)c3ccccc3n2)s1 | 0.1
51 | Nc1cccc(C(=O)Nc2ccc(N)cc2Cl)c1 | i
52 | CCCCN(CC)CCNS(=O)(=O)c1ccc2c(c1)oc(=O)n2C | 0.2
53 | Cc1ccc(C2N(c3ccc(F)cc3)C(=O)C3CCCN32)cc1 (stereo unspecified) | i
54 | O=c1oc2ccccc2cc1-c1nc(-c2cccs2)cs1 | 0.9
55 | Fc1ccccc1N1CCN(CCCNc2ccc3nncn3n2)CC1 | i
56 | CN1C(=O)NC(NC(=O)C2CCCCC2)(C(F)(F)F)C1=O (stereo unspecified) | i
57 | O=C(CSc1nnc(-c2c[nH]c3ccccc23)o1)N1CCCCC1 | i
58 | CC(C)(C)C(=O)NC1CCN(S(=O)(=O)c2ccc(C(F)(F)F)cc2)CC1 | 0.2
59 | O=C(Nc1ccc(N2CCCCC2)c(Cl)c1)c1ccc(N2CCOCC2)c([N+](=O)[O-])c1 | 3.4
60 | CCCCC(=O)Nc1ccc(C(=O)N2CCC(C(=O)OCC)CC2)cc1 | 0.2
61 | Cc1cc(Cl)ccc1NC(=O)CN1CCC(C(O)(c2ccccc2)c2ccccc2)CC1 | i
62 | CCC(=O)Nc1cccc(NC(C)=O)c1 | 1.5
63 | O=S(=O)(c1ccc(OCC(O)CN2CCCC2)cc1)N1CCOCC1 (stereo unspecified) | 0.2
64 | O=C(OC(C(=O)NCc1ccc2c(c1)OCO2)c1ccc(Cl)cc1)c1ccco1 (stereo unspecified) | i
65 | O=C(OCc1ccco1)c1ccc(S(=O)(=O)N2CCCCC2)cc1 | i
66 | CC1(C)Cc2c(c(N3CCCCC3)[nH]c(=S)c2C#N)CS1 | 0.4
67 | O=C(CCC(=O)OCc1cccc(C(=O)Oc2ccccc2)c1)Nc1cccc2ccccc12 | i
68 | C=CCOc1ccccc1CNn1nnnc1N | 1.3
69 | Cc1ccc(C)n1-n1c(C)nc2sc(-c3ccccc3)cc2c1=O | 2.4
70 | Cc1cccc(CNC(=O)c2ccccc2N)c1 | 0.4
71 | CC(C)NC(=O)C12CC3CC(C1)CC(n1cnc(Cl)n1)(C3)C2 | 0.1
72 | Cc1ccc(-c2nc(CCN3C(=O)c4ccccc4C3=O)cs2)cc1 | i
73 | O=C(COC(=O)Cc1cccc(C(F)(F)F)c1)NCC1CCCO1 (stereo unspecified) | i
74 | CCOc1ccc(NC(=O)Cn2nc(-c3ccccc3Cl)n(CC)c2=S)cc1 | i
75 | Clc1ccc2nc(N3CCCCC3)[nH]c2c1 | 0.1
76 | O=C(Nc1cccc(C(=O)N2CCOCC2)c1)c1cncc(Br)c1 | 0.2
77 | COc1ccc(CCN(C)C(=O)C2CCCN(Cc3ccc(OC)c(OC)c3)C2)cc1OC (stereo unspecified) | 0.6
78 | O=C(O)CSc1ccccn1 | i
79 | C/C(CCc1ccc2c(c1)OCO2)=N\N=C1\NC(=O)CC(C(=O)Nc2ccc(Cl)cc2)S1 (stereo unspecified) | i
80 | COC(=O)[C@@H](NC(=O)N(C1CCCCC1)C1CCCCC1)C(C)C | i
81 | Cc1ccc(C(=O)C[n+]2cc(-c3ccc(C)cc3)n3c2CCCCC3)cc1 | i
82 | Nc1nonc1N1CCCCC1 | i
83 | CC(=O)Nc1ccc(NC(=O)CSc2nnc(-c3ccco3)n2Cc2ccco2)cc1 | 0.2
84 | O=C(Nc1cc(Cl)cc(Cl)c1)C1CCC(=O)N1Cc1ccccc1Cl (stereo unspecified) | i
85 | CCOC(=O)c1sc(NC(=O)c2ccc(C)s2)cc1C | i
86 | O=C(CC1C(=O)NC2CCCCC2N1C(=O)c1ccc(F)cc1)Nc1ccccc1 (stereo unspecified) | 0.8
87 | CCOC(=O)c1cc(CC)sc1NC(=O)c1cc([N+](=O)[O-])ccc1N1CCOCC1 | 0.4
88 | C/C(Cl)=C/Cc1c(C)[nH]c2ccc(C)cc2c1=O | i
89 | COc1ccc(CCN(Cc2cc3cccc(C)c3[nH]c2=O)C(=O)NC2CCCCC2)cc1OC | i
90 | CCn1c(N)c(C(=O)NCc2ccco2)sc1=S | i
91 | Cc1cccc(N2CCCn3c2nc2c3c(=O)n(CCN3CCOCC3)c(=O)n2C)c1 | 1.0
92 | CCC(=O)c1ccc(OCCN2CCOCC2)cc1 | i
93 | O=[N+]([O-])c1cc2c(c(CSc3nnc(Nc4ccccc4)s3)c1)OCOC2 | i
94 | O=C(CN1CCN(Cc2ccccc2)CC1)NC(=O)NC1CCCCC1 | 0.6
95 | CCOC(=O)c1sc(=S)n(C)c1C | i
96 | CCCNS(=O)(=O)c1cccc2cccnc12 | 4.8
97 | CCC(C)N1CC(O)=C(c2nc3ccccc3[nH]2)C1=N (stereo unspecified) | i
98 | NC(=O)/C(=C/c1ccco1)NC(=O)/C=C/c1ccccc1 | 4.5
99 | O=C(C1CCN(S(=O)(=O)c2cnc[nH]2)CC1)N1CCc2ccccc2C1 | i
100 | CCOc1ccc(-c2noc(-c3cccnc3)n2)cc1OC | 2.8

Remaining list, next part
item | SMILES | H5N1 CPE
101 | Cc1ccc(C(=O)NCCCn2ccnc2)o1 | 0.6
102 | Cc1cccc(N2C(=O)CC(SC(=Nc3ccccc3)Nc3ccccc3)C2=O)c1 (stereo unspecified) | 1.7
103 | CCOC(=O)CSc1nc2c(c(-c3ccc(C)o3)c1C#N)CCCC2 | 1.5
104 | Cc1cc(C)c(S(=O)(=O)c2ccccc2)c(OC(=O)c2c(F)cccc2Cl)n1 | 0.5
105 | CN(C)c1ccc(-c2nn3c(-c4ccc(Cl)cc4Cl)nnc3s2)cc1 | 1.2
106 | Cc1cc(C(=O)NNC(=S)NCC(C)C)no1 | i
107 | CSc1nc2ccccc2c(=O)n1N | 2.5
108 | Cc1onc(C(=O)N2CCC(C(N)=O)CC2)c1-c1ccccc1Cl | i
109 | OC1CCCN(Cc2ccccc2)C1 (stereo unspecified) | 0.3
110 | CC1CCCCC1NC(=O)C1CCN(C(=O)NC2CCCCC2)CC1 (stereo unspecified) | i
111 | Cc1cc(C)nc(SCC(=O)N/N=C\c2sccc2C)n1 | i
112 | CCCCN(C)S(=O)(=O)c1cc(Br)cc2c1N(C(=O)C1CC1)CC2 | i
113 | CC(/C=C/c1ccccc1)=N\NC(=O)c1ccncc1 | 1.4
114 | O=C1CNC(=O)N1CC(=O)N1CCCc2ccccc21 | i
115 | CN(C)CCSc1nc(-c2ccccc2)nc2c1COC(C)(C)C2 | i
116 | CC(C)C(=O)Nc1nnc(SCC(=O)NC2CC2)s1 | i
117 | CC1=C(C)CC(C(=O)c2ccc(C)cc2)C(C(=O)O)C1 (stereo unspecified) | i
118 | CC1=C(C(=O)Nc2ccccn2)C(c2ccc(N(C)C)cc2)n2ncnc2N1 (stereo unspecified) | 0.6
119 | Cc1ccc(C(=O)c2c(NC(=O)c3ccccc3C)sc(C)c2C)cc1 | i
120 | Cc1cc(C(=O)CSc2nnc(C3COc4ccccc4O3)n2C)c(C)n1-c1ccc(F)cc1 (stereo unspecified) | i
121 | CS(=O)(=O)N(CCc1ccccc1)CC(=O)Nc1ccc(OCc2ccccc2)cc1 | i
122 | Nc1ccc2nc3n(c(=O)c2c1)CCC3 | 1.3
123 | COC(=O)c1ccc2c(=O)n(CC3CCCO3)c(SCC(=O)Nc3ccccc3OC)nc2c1 (stereo unspecified) | 0.2
124 | C#CCNc1nc(C(C)C)nc2c1nnn2Cc1ccccc1F | i
125 | O=C(NCCC1=CCCCC1)C1CCN(C(=O)c2ccc(Cl)cc2)CC1 | 0.4
126 | COc1ccc(CN(CCC#N)C(=S)NC(=O)c2ccccc2)cc1 | 0.9
127 | Cc1nn(CC(=O)NNC(=S)Nc2ccccc2)c(C)c1[N+](=O)[O-] | 1.3
128 | COC(=O)c1ccccc1NC(=O)CN(C)S(=O)(=O)c1ccc(OC)c(C)c1 | 1.2
129 | COc1nc(N(C)C)nc(-n2nnc(C(C)=O)c2C)n1 | i
130 | Cc1ccc(S(=O)(=O)Nc2cc(C(=O)N3CCOCC3)ccc2N2CCCCC2)cc1 | 0.3
131 | CCSCCOC(=O)C1=C(C)NC(=O)NC1c1ccccc1 (stereo unspecified) | 2.7
132 | COc1ccc(NC(=O)C2CCN(Cc3cnn(-c4ccccc4)c3-n3cccc3)CC2)cc1OC | i
133 | COc1cc(NC(=O)COC(=O)/C=C/c2c(C)nn(C3CCS(=O)(=O)C3)c2Cl)cc(OC)c1OC (stereo unspecified) | 0.2
134 | O=C(CN1C(=O)COc2ccccc21)N(CCCN1CCOCC1)CC1CC=CCC1 (stereo unspecified) | 0.2
135 | c1ccc2[nH]c(N3CCOCC3)nc2c1 | i
136 | Cc1cc[n+]2c3c(cccc13)CCC2 | i
137 | N/C(=N\O)c1ccc(NC(=O)c2cccs2)cc1 | 2.7
138 | O=C(c1ccco1)N1CCN(c2nc3ccccc3n3nnnc23)CC1 | 0.8

High-throughput results deposited in PubChem by SRMLSC.
